# Compound activity deposited in PubChem BioAssay by National Center for Advancing Translational Sciences (NCATS).
# PINK1 modulator: modulators of PINK1 expression. Potency, µM (titrated, usually from 76.6 µM), for the others: at the highest dose activation (PINK1 increase), usual class: activators. 0.2% of 410,000 active. PINK1 immunofluorescence, high-content cytometry, 24 h. AID 624263; active = well fitted activation curve with a large enough effect; inconclusive = small, poorly fitted or top-dose-only effect; inactive = flat fitted curve, though single readings scatter; cell line not stated here;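 further: potency means the concentration at half of the fitted maximal effect; % of control where 0% means no effect; nearly all actives have a fitted effect of over 65% in size; a mitochondrial uncoupler was the plate control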
#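 A stable cell line was treated with compounds at 5 concentrations for 24 hours, with CCCP as control. PINK1 levels and mitochondrial localization were measured by immunofluorescence with mitochondrial, cell and nuclear markers after fixation, read by laser-scanning cytometry.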
# Menin MLL FP FL: displaces fluorescein MLL peptide from human menin | Fluorescence polarization, fluorescein-MLL peptide displacement from menin | AID 1766 | FP activity change, % at 61.4 µM | 290,000 tested, under 10 active; inconclusive = falling polarisation curve, or a change in total fluorescence; inactive = total fluorescence flat and polarisation flat or rising; no compound was filed as active; the % refers to the polarisation; negative = inhibition;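 further: % of control where 0% means no effect; inhibitors lower the polarisation; unlabelled MLL peptide was the positive control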
# Sfp inh: inhibitors of Bacillus subtilis Sfp phosphopantetheinyl transferase. Q9F4F7. Biochemical Sfp PPTase activity, qHTS. Potency, µM, inactives show max response, negative = inhibition, usual class: inhibitors. 3.5% of 310,000 active. AID 1490; active means well fitted inhibition curve with a large enough effect; inconclusive means small, poorly fitted or top-dose-only effect, or another doubt; inactive means no such curve, though single readings can be large or run the other way;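 further: the enzyme is Sfp with the accession as filed and its product quenches rhodamine fluorescence; potency means the concentration at half of the fitted maximal effect; 0% = enzyme reaction without inhibitor and -100% = no enzyme wells; top concentration of the series not given in the record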
#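 After 15 min at room temperature with compound, 15 nM Sfp received 5 uM rhodamine-CoA plus 12.5 uM BHQ-2-ybbR (50 mM Hepes pH 7.6, 10 mM MgCl2). Rate came from the fluorescence difference over 30 min, ex 525/em 598 nm.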
# TRPV1 potentiator: enhances activation of the human vanilloid receptor TRPV1; Q8NER1; TRPV1-expressing cells, Fluo-8 calcium influx, capsaicin EC20 potentiation; host cell line not named in the record; control for the full effect not named in the record; potentiation, % at 8.33 µM; 0.02% of 320,000 active; active means potentiation above 80%; inconclusive means 30% to 80%; inactive means below 30%; further: 0% is about no effect
#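 Fluo-8 calcium influx in TRPV1-expressing cells, kinetic read (ex 480/em 520 nm). Compound added and read 3 min for agonist activity, followed by capsaicin at EC20 final and 2 min further read for enhancement.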
# ClpP mod: qHTS Assay for Activators of ClpP; ATP-dependent Clp protease proteolytic subunit (Bacillus subtilis (strain 168)), P80244; purified B. subtilis ClpP, FRET peptide cleavage, 20 min; Potency, µM (titrated, usually from 57.5 µM), without a hit: at the top dose activity change, negative = active; 1.9% of 340,000 active; AID 651965, 2013; active = well fitted falling curve with a large enough effect; inconclusive = small, poorly fitted or top-dose-only effect; inactive = no such curve, though single readings can be large or run the other way; further: potency means the concentration at half of the fitted maximal effect; the source files actives as falling curves though it sought activators and does not explain the sign; nearly all actives have a fitted effect of over 65% in size; many hits overshoot -100%
# Target sequence (P80244 whole entry, looked up): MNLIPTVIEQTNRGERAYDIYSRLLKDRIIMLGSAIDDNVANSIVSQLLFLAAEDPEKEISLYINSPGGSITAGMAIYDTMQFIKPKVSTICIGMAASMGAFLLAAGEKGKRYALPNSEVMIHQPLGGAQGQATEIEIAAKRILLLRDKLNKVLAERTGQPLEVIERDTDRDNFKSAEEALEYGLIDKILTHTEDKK
#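 Purified B. subtilis ClpP, 10 microg/mL final in Tris/HCl pH8 with KCl, BSA, glycerol and Tween-20, cleaved an Abz/nitrotyrosine-quenched decapeptide. Fluorescence (ex 320, em 430) was read at 0 and 20 min at room temperature. Delta was normalized to 5.8 microM ADEP and DMSO/no-enzyme controls.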
# TRPML1 ag: activates the human TRPML1 channel. 0.12% of 410,000 active. TRPML1-expressing cells, Ca2+ dye fluorescence, FDSS; host cell line not named in the record; reference of the full effect not given here. AID 624414. activation, % (concentration not given with the values); in the data active = activation above about 50%; inconclusive = about 30% to 50%; inactive = below about 30%; further: 0% is about no effect; the text of the record puts the active cut at 80%
# Target sequence (Q9GZU1 whole entry, looked up): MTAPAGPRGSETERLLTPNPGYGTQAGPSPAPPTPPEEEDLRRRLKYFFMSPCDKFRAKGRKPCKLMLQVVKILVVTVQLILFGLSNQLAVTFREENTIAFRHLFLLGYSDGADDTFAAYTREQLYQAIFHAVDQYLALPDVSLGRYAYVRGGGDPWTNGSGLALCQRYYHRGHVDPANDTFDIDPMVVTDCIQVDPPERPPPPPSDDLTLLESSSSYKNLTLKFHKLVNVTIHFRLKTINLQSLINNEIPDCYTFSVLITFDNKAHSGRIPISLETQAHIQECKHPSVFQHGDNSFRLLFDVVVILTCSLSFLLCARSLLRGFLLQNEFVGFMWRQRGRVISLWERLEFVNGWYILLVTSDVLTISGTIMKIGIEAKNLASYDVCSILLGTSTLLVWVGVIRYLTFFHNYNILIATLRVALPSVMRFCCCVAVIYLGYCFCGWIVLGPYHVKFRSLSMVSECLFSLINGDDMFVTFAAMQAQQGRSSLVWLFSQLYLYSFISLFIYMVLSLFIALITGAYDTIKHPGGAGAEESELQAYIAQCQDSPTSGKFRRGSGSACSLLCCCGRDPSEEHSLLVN
#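 Agonist activity was taken from a 110 s kinetic Ca2+ dye read on the FDSS after pinning compounds onto TRPML1-DL cells. The cells were seeded at 1,500/well with Tet inducer, incubated about 16 h, then dye-loaded at room temperature.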
# TRPML1 inh: blocks the human TRPML1 channel. Q9GZU1. activity change, negative = inhibition, % (concentration not given with the values). TRPML1-inducible cells, Ca2+ dye fluorescence, FDSS; stronger effect = lower value; inhibition of EC80 agonist-evoked calcium signal. 0.02% of 390,000 active; in the data active means activity change below about -50%; inconclusive means about -30% to -50%; inactive means above about -30%;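 further: stimulus is agonist 54-4 at its EC80 concentration; on the % scale 0 is the no-effect control and ±100 the full control effect; compound concentration not given in the record; the text of the record puts the active cut at -80%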
#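 Tet-induced TRPML1-DL cells loaded with Ca8 no-wash calcium dye were read kinetically on FDSS. Compound addition was followed by EC80 agonist 54-4 (4 uM final); inhibition was read over 110 s.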
# * = called active by the depositor; ? = inconclusive; / = not tested or not shown; & = joins results of further samples; [ ] = remark or other dose.
SMILES,PINK1 modulator,Menin MLL FP FL,Sfp inh,TRPV1 potentiator,ClpP mod,TRPML1 ag,TRPML1 inh
COc1ccc(C2C3C=CCC(c4cccc(-c5ccc(N(C)C)cc5)c4)C3C(=O)N2Cc2ccccc2)cc1Cl (centres undefined),/,5.6,3.6%,/,/,0.4,2.4
CCN(C1CCCCC1)S(=O)(=O)c1cc(C)ccc1OC,2.1%,1.3,8.6%,-6.3,1.1%,-0.3,-11.7
C/C(N)=C(/C#N)C(=O)COC(=O)c1ccccc1C(=O)c1ccc(C)cc1,0.9%,2.8,17.2%,-12.5,/,-1.2,-1.9
C=C(C)Cn1c(SCC(=O)O)nnc1-c1ccc(OC)cc1,-2.3%,-0.1,22.2%,5.3,0.3%,0.3,5.0
Cc1cccc(C)c1Nc1ncnc2ccccc12,-0.2%,-4.2,3.4%,8.5,0.3%,4.1,12.6
N#C/C(=C/c1ccc(Sc2nc3ccccc3[nH]2)o1)c1ccccc1F,?,8.6,12.9%,-4.3,-17.6%,2.1,6.4
N#CC1=C(N)Oc2cc3ccccc3cc2C1c1cccnc1 (centres undefined),10.0%,4.5,-28.8%,-13.5,-1.4%,1.2,13.7
Cc1nc2sc(C(c3cccs3)N3CCN(C(=O)c4ccco4)CC3)c(O)n2n1 (centres undefined),-0.6%,-0.9,12.3%,5.7,-0.2%,-0.5,5.0
COc1ccc2c(C(F)(F)F)cc(=O)oc2c1C,1.1%,2.2,-7.7%,-3.9,-1.0%,0.1,-8.7
CC(C)Oc1cccc(C(=O)NC(=S)Nc2ccccc2)c1,-0.6%,/,-18.5%,-21.6,3.2%,0.2,-12.2
COC(=O)CSc1nc(C2CC2)nc2ccccc12,-1.7%[38.3 µM],7.2,14.1%,5.0,-2.1%,0.8,37.3
O=C(c1ccc2c(c1)C(=O)N(Cc1ccco1)C2O)N1CCOCC1 (centres undefined),2.5%,-0.6,21.4%,12.3,-5.0%,0.4,14.9
COc1cccc(CNC(=O)CCCC(=O)Nc2cccc([N+](=O)[O-])c2)c1,1.1%,1.9,4.8%,-1.4,0.0%,-0.4,-5.2
COC(=O)CNC(=O)C12CC3(C)CC(C)(CC(C)(C3)C1)C2,-1.0%,3.4,9.6%,?,0.1%,0.0,13.4
CC(=O)Nc1ccc2c(c1)CCCN2C(=O)c1ccccc1,-0.4%,0.6,11.0%,0.0,-8.2%,-0.2,19.8
Cc1cccc(CCNS(=O)(=O)c2cnc[nH]2)c1,0.1%,2.0,-6.1%,-19.4,1.5%,0.3,3.3
CC(C)c1onc(C(=O)N2CCN(c3ccc(F)cc3)CC2)c1[N+](=O)[O-],1.4%,/,10.8%,-3.5,-0.5%,0.2,-8.5
C#CCOc1ccc2c3c(c(=O)oc2c1)CCCC3,-0.9%,0.2,-7.1%,6.4,/,2.5,29.3
CCN(CCCNC(=O)c1ccc(Sc2ccc(Cl)cc2)c(NC(C)=O)c1)c1cccc(C)c1,0.0%,/,/,/,-17.6%,-0.3,-3.8
CCC(C)[C@@H](NC(=O)OC(C)(C)C)c1nnc(S(=O)(=O)Cc2cccc(C)c2)o1 (some centres undefined),-4.7%,6.8,25.1µM*,-24.7,-6.4%,3.6,17.4
CNC(=S)N/N=C/c1ccc(N(C)C)cc1,1.8%,2.5,-21.5%,-4.3,9.7%,0.4,-25.3
Cc1c(NC(=O)c2ccc(S(=O)(=O)N(C)C)cc2)cccc1-n1cnnn1,3.1%,/,/,-6.5,-0.7%,-0.7,-9.7
COc1ccccc1-c1cc(C(=O)NCc2ccc(F)cc2)no1,-1.5%[38.3 µM],3.7,10.1%,-9.0,?,1.7,-4.2
CCOC(=O)c1ccccc1NC(=O)CSc1nc2ccccc2n1CC(=O)N1CCCC1,5.4%[38.3 µM],1.9,14.3%,25.0,-5.8%,-0.1,-15.6
CCOC(=O)c1cccc(NC(=O)COC)c1,-0.1%,0.0,7.4%,-3.0,-1.0%,-1.0,8.8
Cc1cc(C)cc(Nc2nc3ccc(C)cc3n3cnnc23)c1,8.2%,-0.6,2.6%,-8.5,-1.6%,0.9,-5.2
Cc1ccc2c(c1)OC(c1ccc3c(c1)OCCO3)CC2=O (centres undefined),0.4%,6.5,-2.7%,-8.7,2.0%,1.6,-7.1
CCCS(=O)(=O)c1ccc(COC(=O)c2cccc(NC(=O)C(C)C)c2)cc1,0.8%,0.1,4.3%,0.6,/,2.1,0.1
Cc1c(N/N=C(\C#N)C(=O)c2ccc(Cl)cc2)c(=O)n(-c2ccccc2)n1C,2.2%,-7.8,6.7%,-5.9,-2.6%,1.9,-18.0
CC(C)(C)c1ccc(S(=O)(=O)N(CCCN2CCOCC2)Cc2cccs2)cc1,7.7%&2.4%,-1.6,2.24µM*,0.7,-1.0%,2.6&1.5,-1.4&2.9
CC1(C(=O)OCC(=O)NC(=O)c2ccccc2)CC1(Cl)Cl (centres undefined),0.1%,/,/,-24.4,/,0.6,-7.8
COc1cccc(C2c3[nH]c4ccccc4c3CCN2Cc2cnc(C)s2)c1OC (centres undefined),4.5%,3.1,2.3%,-0.3,/,3.9,34.1
O=C1CCCN1CCCNc1ccc2nnc(CCC(=O)N3CCN(c4ccc(F)cc4)CC3)n2n1,-1.1%,1.7,7.9%,15.1,-9.3%,-0.2,16.3
CCCN(CCC)C(=O)CSc1nc2n[nH]c(C)c2c(=N)n1-c1ccc(OCC)cc1,2.0%,2.9,2.2%,0.2,1.2%,3.0,3.1
CCOc1ccccc1C(=O)NCC(=O)Nc1ccc(-c2ccccc2)cc1,0.1%,1.7,13.3%,-4.1,?,-0.3,-14.9
COc1ccc(C2CC(=O)c3cc(-c4nc(-c5cccc([N+](=O)[O-])c5)cs4)c(=O)n(-c4ccc(OC)cc4)c3C2)cc1 (centres undefined),-1.9%,/,/,/,0.2%,-0.2,16.3
CC(=O)c1cccc(NC(=O)c2ccc(NC(=O)CC3SC(N4CCCCC4)=NC3=O)cc2)c1 (centres undefined),-1.1%,-0.2,9.6%,5.5,22.4µM*,0.8,11.9
O=C(CCN=C1NS(=O)(=O)c2ccccc21)OCc1nnc(-c2ccccc2)o1,1.0%,/,/,22.6,-4.8%,-1.2,3.7
Cc1ccc2sc(NC(=O)c3ccc4c(c3)OCCO4)nc2c1C,4.4%,/,/,/,-29.7%,-0.7,-4.1
CCOC(=O)/C(=C/C=C1\Sc2ccccc2N1CC)C(C)=O,1.8%,?,-3.7%,-1.4,/,80.1*,3.5
NC(=O)c1c(NC(=O)COC(=O)CSc2nnc(-c3ccc(Cl)cc3)o2)sc2c1CCC2,0.9%,11.4,5.8%,-35.3,17.3%,-0.4,5.6
O=C(CN1C=NS(=O)(=O)c2ccccc21)Nc1ccc(F)cc1,-0.1%,/,/,/,0.6%,-0.4,28.5
CCCCN(CCCC)S(=O)(=O)c1ccc(C(=O)Nc2nnc(COC)o2)cc1,2.0%,6.9,27.4%,5.5,-0.1%,-0.8,0.4
CSCCC(NC(=O)c1ccc(C(C)(C)C)cc1)C(=O)O (centres undefined),-0.9%,4.0,24.4%,-9.4,-0.3%,-1.1,-1.5
COC(=O)CSc1nc(C)c(C)c(C)c1C(N)=O,3.6%,-1.1,11.5%,-1.1,/,-0.5,-2.7
O=C(C1CCC1)N1CCN(c2ccc(Cl)cc2)CC1,0.8%,1.1,1.0%,2.8,-0.2%,0.3,25.0
Cc1ccc(CSCCNC(=O)c2ccc(Cl)c(S(=O)(=O)N3CCOCC3)c2)cc1,-2.3%,1.8,16.4%,9.7,3.4%,-0.9,8.2
O=C(c1ccc2c(Cl)c3c(nc2c1)CCCC3)N1CCN(c2ccccc2F)CC1,-0.5%,/,/,/,0.7%,0.9,18.1
CCCCNc1cccc2c1S(=O)(=O)N(CCCC)CC(COCc1ccccc1)O2 (centres undefined),1.1%,/,/,/,5.5%,0.9,-4.0
CN(C)c1ccc(C(=O)c2ccc(O)cc2O)cc1,4.6%,1.1,-1.1%,-21.0,-5.4%,1.2,-11.4
CCc1nc2nc(C)c(NS(=O)(=O)c3ccc4c(c3)CCCC4)c(=O)n2[nH]1,-2.1%,3.9,16.4%,10.4,/,-0.3,1.1
CC1(C)OC(=O)C2=C(C[C@@H](C3CCCCC3)O[C@H]2c2ccccc2)O1,10.9%,/,/,/,1.6%,-0.8,/
O=C(Nc1ccc(Oc2ccccc2)nc1)C1CCN(Cc2ccco2)CC1,0.0%,-0.3,5.8%,-4.9,/,0.6,4.7
Cn1c(SCc2ccc(Br)cc2)nc2ccccc2c1=O,1.3%,-2.2,-12.1%,24.2,-1.4%,3.1,-9.1
C=CCn1c(=S)[nH]c2cc(C(=O)NCCc3ccc(S(N)(=O)=O)cc3)ccc2c1=O,?,/,/,1.5,-6.0%,3.7,-4.1
CCC(C)c1ccccc1NC(=O)COC(=O)CCc1cc(OC)c(OC)c(OC)c1 (centres undefined),3.6%,3.5,-1.7%,?,1.2%,-0.1,8.5
Cc1cccc(C(=O)Nc2nnc(S(=O)(=O)N3c4ccccc4CC3C)s2)c1 (centres undefined),0.8%,/,/,/,-1.9%,1.8,6.0
CCOc1cccc(C(=O)Nc2ccc(N3CCN(S(C)(=O)=O)CC3)cc2)c1,4.3%,2.4,17.9%,-20.7,18.4%,-0.2,-2.6
Cn1ncc(=S)[nH]c1=S,-1.3%,/,/,/,/,-0.8,-2.7
Cc1ccc2nc(-c3ccccc3)cc(C(=O)N3CC(C)OC(C)C3)c2c1 (centres undefined),-1.6%,/,/,-10.7,-18.4%,-0.3,4.9
CC(C)(C)NC(=S)NNC(=O)c1cccc(Br)c1,1.5%,0.9,11.4%,0.3,5.6%,-0.9,-2.3
Cc1ccccc1-n1c(Cc2cccs2)n[nH]c1=S,-0.5%[38.3 µM],0.4,?,-2.3,-0.9%,-0.3,-2.4

# Individual results from above.
# O=C(C1CCC1)N1CCN(c2ccc(Cl)cc2)CC1 | Sfp inh: 1.0%
# Cc1ccc(CSCCNC(=O)c2ccc(Cl)c(S(=O)(=O)N3CCOCC3)c2)cc1 | Menin MLL FP FL: 1.8
